MITF inhib: blocks MITF activity | AID 2240 | TRPM1 promoter luciferase, luminescence, 24 h | inhibition, % (test concentration not listed) | 37,000 compounds, 0.28% hits;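 active = most replicates at 85% or more, or half of them and the mean; inconclusive = half reach 85% but not the mean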;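 also: human melanocyte line stably carrying TRPM1 promoter luciferase reporter; 0% = vehicle wells and 100% = a positive control; the first replicate is given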
PD-1 reversal: reversal of PD-1 mediated T-cell inhibition; 29,000 tested, under 10 active; AID 2316; primary human CD4 T cells, PD-L1 beads, CellTiter-Glo 96 h; activation, % (concentration not given with the values);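 active = replicate mean of 50% or more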;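 also: 0% = median vehicle wells and 100% = positive control; 100 nL library stock added to about 50 µL; numbers are from one replicate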
Hedgehog inh: Sonic Hedgehog pathway inhibition; 22,000 compounds, 2.1% hits; AID 2313; Shh-LIGHT2 Gli-luciferase reporter, 30 h; inhibition, % (no concentration beside the values);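 active = replicate mean of 65% or more; inconclusive = mean lower but half the replicates past it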;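 also: pathway switched on by Shh-conditioned medium diluted 1 in 25 in low serum; 100 nL library stock added to about 40 µL; 0% = median of neutral wells and 100% = positive control level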
YB-1 expression: YB-1 expression inhibition; U2OS, qRT-PCR YB-1 vs CDIP delta delta Cp, 16 h; active compounds read high; zero = DMSO, each unit about twofold; delta delta Cp (YB-1 minus CDIP) (no concentration beside the values); 30,000 compounds, 0.37% hits; AID 434959;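 active = delta delta Cp rounded down to an integer at or above 3, about 3 SD of DMSO wells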;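 also: higher means less YB-1 transcript or more CDIP transcript relative to DMSO; stock transfer was 100 nL into about 100 µL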
Starred values were filed as active, the others as inactive; u = inconclusive; x = no result given; & = joins results of further samples. The list is partial, so the mix of outcomes need not match the whole.

Short keys: A = MITF inhib; B = PD-1 reversal; C = Hedgehog inh; D = YB-1 expression
(1) COc1ccc(CN(CCN(C)C)c2ccccn2)cc1
  A = 7	B = x	C = -33	D = 0.56

(2) COc1c(O)cc2c(c1O)C1OC(CO)C(O)C(O)C1OC2=O (centres undefined)
  A = 7	B = 1.5	C = -33	D = -0.83

(3) CC(N[C@H](C)COc1ccccc1)[C@H](O)c1ccc(O)cc1 (some centres undefined)
  A = -36	B = x	C = 13	D = -0.14

(4) CC1=NN(c2ccccc2)C(=O)C1
  A = 18	B = x	C = -11	D = -0.43

(5) Cc1coc2c1C(=O)C(=O)c1c-2ccc2c1CCCC2(C)C
  A = 39	B = x	C = 22	D = 0.1

(6) COc1ccccc1OCC(O)COC(N)=O (centres undefined)
  A = -10	B = -0.8	C = 35	D = 0.0012

(7) CCOC(=O)c1ccc2nc(C(F)(F)F)nc(NCc3ccc(Cl)cc3)c2c1
  A = 9	B = 0.3	C = x	D = 0.34

(8) O=C(O)COC(=O)Cc1ccccc1Nc1c(Cl)cccc1Cl
  A = -9	B = 1.9	C = -94	D = 0.041

(9) Cc1nnc(NS(=O)(=O)c2ccc(N)cc2)s1
  A = -8	B = x	C = 24	D = 0.02

(10) CCC[C@H](N[C@@H](C)C(=O)N1[C@H](C(=O)O)C[C@@H]2CCCC[C@@H]21)C(=O)OCC
  A = 0	B = x	C = 17	D = 0.014

One compound at a time (already shown).
Record of Cc1coc2c1C(=O)C(=O)c1c-2ccc2c1CCCC2(C)C → MITF inhib = 39; PD-1 reversal = x; Hedgehog inh = 22; YB-1 expression = 0.1
Record of CC1=NN(c2ccccc2)C(=O)C1 → MITF inhib = 18; PD-1 reversal = x; Hedgehog inh = -11; YB-1 expression = -0.43

Sorted by formula weight (lowest first): 5 of the compounds above.
Short keys: A = MITF inhib; B = PD-1 reversal; C = Hedgehog inh; D = YB-1 expression
(4) CC1=NN(c2ccccc2)C(=O)C1
  A = 18	B = x	C = -11	D = -0.43

(5) Cc1coc2c1C(=O)C(=O)c1c-2ccc2c1CCCC2(C)C
  A = 39	B = x	C = 22	D = 0.1

(3) CC(N[C@H](C)COc1ccccc1)[C@H](O)c1ccc(O)cc1 (some centres undefined)
  A = -36	B = x	C = 13	D = -0.14

(10) CCC[C@H](N[C@@H](C)C(=O)N1[C@H](C(=O)O)C[C@@H]2CCCC[C@@H]21)C(=O)OCC
  A = 0	B = x	C = 17	D = 0.014

(7) CCOC(=O)c1ccc2nc(C(F)(F)F)nc(NCc3ccc(Cl)cc3)c2c1
  A = 9	B = 0.3	C = x	D = 0.34

Later entries:
Short keys: A = MITF inhib; B = PD-1 reversal; C = Hedgehog inh; D = YB-1 expression
(11) COc1nc(C)nc(Cl)c1NC1=NCCN1
  A = 14	B = x	C = -45	D = -0.34

(12) O=C1NCC2(CCN(CCc3ccccc3)CC2)O1
  A = 12	B = x	C = 13	D = -0.015

(13) COc1cc2nc(N3CCN(C(=O)C4COc5ccccc5O4)CC3)nc(N)c2cc1OC (centres undefined)
  A = 0	B = -1.0	C = 28	D = 2.7

(14) CCCOc1ccccc1-c1nc2n[nH]nc2c(=O)[nH]1
  A = 5	B = 3.3	C = 35	D = -0.033

(15) C1=NC(Cc2cccc3ccccc23)NC1 (centres undefined)
  A = 11	B = -0.3	C = 6	D = 0.15

(16) NS(=O)(=O)c1cc2c(cc1C(F)(F)F)NC(Cc1ccccc1)NS2(=O)=O (centres undefined)
  A = -17	B = x	C = -54	D = -0.24

(17) Cc1ccc(Cl)cc1N(CC(=O)Nc1c(F)cccc1F)S(C)(=O)=O
  A = 6	B = 1.0	C = x	D = x

(18) O=C(O)CCC/C=C\C[C@H]1C(=O)C[C@@H](O)[C@@H]1/C=C/[C@@H](O)CCc1ccccc1
  A = -2	B = x	C = -8	D = -0.092

(19) C[C@]12CC[C@H]3[C@@H](CCC4=CC(=O)CC[C@@]43C)[C@@H]1CC[C@@H]2C(=O)CO
  A = -5	B = 0.6	C = u	D = -0.066

(20) O=C(O)CN1C(=O)c2cccc3cccc(c23)C1=O
  A = -10	B = 5.7	C = 44	D = 2.6

Further entries:
Short keys: A = MITF inhib; B = PD-1 reversal; C = Hedgehog inh; D = YB-1 expression
(21) O=C(O)[C@@H]1[C@H]2C[C@H]3c4[nH]c5ccccc5c4CCN3C[C@@H]2CC[C@@H]1O
  A = -3&12	B = 2.4	C = -29&-40	D = 0.25&0.13

(22) c1ccc2c(CC3=NCCN3)cccc2c1
  A = -1	B = x	C = -15	D = -0.18

(23) C=C1c2cccc(O)c2C(=O)C2C(=O)[C@]3(O)C(=O)C(C(N)=O)C(=O)[C@@H](N(C)C)[C@@H]3[C@@H](O)[C@H]12 (some centres undefined)
  A = -5	B = x	C = 7	D = -0.27

(24) Cc1onc(-c2ccccc2Cl)c1C(=O)N[C@@H]1C(=O)N2[C@@H]1SC(C)(C)[C@@H]2C(=O)O
  A = -13	B = 3.1	C = 40	D = 0.65

(25) CC(=O)[C@H]1CC[C@H]2[C@@H]3C[C@H](C)C4=CC(=O)CC[C@]4(C)[C@H]3[C@@H](O)C[C@]12C
  A = -23	B = x	C = u	D = -0.066
